NPYLR7 agonist: agonists of mosquito NPYLR7 receptor, primary screen, cell-based, Aedes aegypti, calcium fluorescence, mosquito biting behavior | activation, % at 10 µM | 0.15% of 270,000 active | Aedes aegypti neuropeptide Y-like receptor 7 (NPYLR7) | AID 1259423, 2018 | HEK293T NPYLR7/Galpha15, GCaMP6s calcium fluorescence; in the data active = activation above about 40%;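 also: 0% = vehicle and 100% = reference agonist at the receptor; some compounds past the cut are filed as inactive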
NPYLR7 agonist max-min: also measured in NPYLR7 agonist; calls as there; activation, %; measured here: Max-Min RFU normalised activation; some inactives read as strong as hits;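 span of the calcium signal over five minutes; 0% = vehicle and 100% = native peptide agonist; compound fluorescence can raise it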
Numbers without * were called inactive; & = joins results of further samples. Some of the compounds tested; the hit share may differ from the screen's.

SMILES	NPYLR7 agonist	NPYLR7 agonist max-min
CCn1ncnc1CN1CCC(CNC(=O)c2cccc(C)n2)C1 (stereo not given)	8	8
CCCc1c(C)nc2c(-c3ccccc3)c(C)[nH]n2c1=O	-3	-4
Cc1cccc(NC(=O)N2CCSC2c2cccs2)c1C (stereo not given)	10	18
CCN(CC)c1ccc(CN(Cc2ccco2)C(=O)CC(C)(C)C)c(OS(C)(=O)=O)c1	-12	-9
CC(C(=O)Nc1cccc(Cl)c1Cl)N1CCN(C(=O)c2cccs2)CC1 (stereo not given)	-6	-8
O=C(Nn1c(O)c(C=C2C=Nc3ccccc32)sc1=S)c1cccc(O)c1	10	4
CN1CCc2cc(C(CNC(=O)c3ccc(-c4ccccc4)cc3)N3CCOCC3)ccc21 (stereo not given)	4	0
Cc1c(C(=O)NC2CCCC2)sc(=O)n1Cc1cccc(C(F)(F)F)c1	0	-3
CCn1ncnc1CN1CCC(Cc2nn(C)c(=O)n2CC)CC1	5	-3
CCOC(=O)C1=C(NC(=O)Cc2ccccc2)c2ccccc2CC1(CC)CC	-9	-13
COc1ccc(OCC(O)CN2CCC(=O)N(C3CC3)Cc3ccccc32)cc1 (stereo not given)	26	34
COCCN(Cc1cccc(OC)c1)CC(O)COc1ccc(Cl)cc1 (stereo not given)	-5	3
CC(=O)N1CCC(C(=O)NC(c2ccc(F)cc2)c2cccs2)CC1 (stereo not given)	7	8
CCN(CC)S(=O)(=O)c1ccc(N/N=C2\CC(C)CC(C)(C)C2)nc1 (stereo not given)	3	-2
NC(=O)c1cccnc1Sc1nnnn1C1CC1	9	8
Cc1ccc(-c2cc(CC(=O)N3CC(C)OC(C)C3)no2)cc1 (stereo not given)	10	11
CS(=O)(=O)N1CCc2cc(Br)ccc21	3	0
Cc1nc2ccccn2c(=O)c1NC(=O)c1ccc(F)cc1	2	0
CCOC(=O)NC(C(=O)Nc1nncs1)C(C)C (stereo not given)	15	36
Cc1cc(C)c2nc(NC(=O)/C=C/c3ccccc3)sc2c1	-2	-9
CCc1ccc(NC(=O)CSc2nc3c(c(=O)[nH]2)CN(C(C)c2ccccc2)CC3)cc1 (stereo not given)	-7	-13
COc1cccc(OC)c1C(=O)Nc1c(C)nc2c(C)cccn2c1=O	-3	-3
COc1ccc2c(c1)C1(CC(=O)N(Cc3ccccc3)C1=O)C(=O)N2CCCn1c(=O)c2c(ncn2C)n(C)c1=O (stereo not given)	3	-4
COCCN(Cc1ccc(Cl)s1)c1ccc(OC)c(OC)c1	3	1
Cc1ccc(NC2CCCN(C(=O)CCC(F)(F)F)C2)cc1C (stereo not given)	1	1
Nc1nnc(C2CCC(=Cc3ccc(Cl)cc3)C2=O)s1 (stereo not given)	3	9
CCC(O)CN(CCOC)Cc1cccc(OC)c1OC (stereo not given)	-3	5
O=C(COc1ccc2ccccc2c1)NN1S(=O)(=O)c2ccccc2S1(=O)=O	3	1
CC(O)c1ccc(N2CCN(CC(=O)N(C)c3ccccc3)CC2)c(F)c1 (stereo not given)	-4	-7
COc1ccccc1C1(CNC(=O)c2cnc(C)cn2)CCCC1	3	2
CC(=O)Nc1cccc(NC(=O)Cc2ccccc2C)c1C	1	0
O=C(Nc1cccc(C2SCC(=O)N2c2ccc(C(F)(F)F)cc2)c1)c1ccccc1Cl (stereo not given)	2	8
CCc1cc(N2CCC(NC(=O)c3ccc4cc[nH]c4c3)CC2)ncn1	1	0
COC(=O)C1=CO[C@@H](C)[C@H]2CN3CCc4c([nH]c5ccccc45)[C@@H]3C[C@H]12	-4	-11
COc1cc(OC)cc(C(=O)NCC2CCCN(C(=O)CCSC)C2)c1 (stereo not given)	9	3
CCC1C=CCN1C(=O)c1cc(COc2ccc3sc(C)nc3c2)on1 (stereo not given)	3	1
CN1C(=CC=C2C(=O)CC(C)(C)CC2=O)C(C)(C)c2ccccc21	298*	393*
CN(CC1CCCN(CCc2cccc(C(F)(F)F)c2)C1)C(=O)c1ccccn1 (stereo not given)	-1	-7
Cc1nc(CC(=O)N2CCC(n3cnc4cc(C(F)(F)F)ccc43)CC2)c(C)s1	-3	4
C#CCOCC1CCCN(S(=O)(=O)Cc2ccccc2)C1 (stereo not given)	5	5
COc1cc(OC)cc(-c2nnc(SCc3cccc(C(F)(F)F)c3)n2C2CCCCC2)c1	10	9
CC(C)C1CN(C(=O)Cn2cncn2)CCC(=O)N1Cc1ccc(F)cc1 (stereo not given)	5	-4
O=C(C[n+]1cc(-c2ccccc2)n2c1CCCCC2)c1ccccc1	-4	-10
N#CC(c1ccccc1)N1CCN(C(=O)C=Cc2ccc3c(c2)OCO3)CC1 (stereo not given)	0	2
COc1ccc(-c2ccc(NS(C)(=O)=O)nc2)c(OC)c1OC	-2	1
CSc1ccc(C(=O)c2[nH]c(=O)[nH]c2C)cc1	-11	7
COc1cccc(-n2c(=O)[nH]c3sc4c(c3c2=O)CCN(C(=O)c2cc(C)ccc2Cl)C4)c1	12	5
Cc1cc(OCC(=O)OCC(=O)c2ccc3c(c2)CCC3)ccc1Cl	-4	-8

Record cards (already shown). Order of screens: NPYLR7 agonist | NPYLR7 agonist max-min
O=C(C[n+]1cc(-c2ccccc2)n2c1CCCCC2)c1ccccc1 as listed: -4 | -10
CC(C)C1CN(C(=O)Cn2cncn2)CCC(=O)N1Cc1ccc(F)cc1 (stereo not given) as listed: 5 | -4
COc1cc(OC)cc(-c2nnc(SCc3cccc(C(F)(F)F)c3)n2C2CCCCC2)c1 as listed: 10 | 9

Carrying on:
SMILES	NPYLR7 agonist	NPYLR7 agonist max-min
COc1ncccc1-c1nc(C(F)(F)F)nc(C)c1C	2	-2
O=C(O)c1cccnc1SC1CC(=O)N(c2ccc(Cl)cc2[N+](=O)[O-])C1=O (stereo not given)	-9	-18
Cc1cc(=O)[nH]c(-n2nc(-c3cccs3)cc2NC(=O)COc2ccccc2F)n1	2	2
CCc1nc2n(n1)C(=O)C(C(c1cccc(Br)c1)N1CCN(C)CC1)S2 (stereo not given)	-3	-7
Cc1cc(C)cc(NC(=O)CC(NCCN(C)C)C(=O)O)c1 (stereo not given)	4	2
COc1ccc(CNC(=O)CSc2nccn3nc(-c4cccc5ccccc45)cc23)cc1OC	-3	-5
Cc1ccc(-c2csc3ncnc(NCC4COCCO4)c23)cc1C (stereo not given)	3	1
O=C(CC1CSc2nccc(=O)n21)NCc1cccs1 (stereo not given)	-2	-3
COc1cccc(NC(=O)CSc2ccc3nnc(CCNC(=O)c4ccccc4)n3n2)c1	3	-2
CC(C)CCN(Cc1c(-c2ccccc2)noc1N1CCN(C)CC1)C(=O)c1cccc(F)c1	3	9
O=C(CSc1nnnn1C1CC1)NC1CC1c1ccccc1C(F)(F)F (stereo not given)	6	4
O=C(Nc1ccccc1C1SCC(=O)N1c1cc(F)ccc1F)c1ccccc1Br (stereo not given)	16	18
CCN1C(=O)N(CO)C2C1N(CO)C(=O)N2CC (stereo not given)	6	3
CC(=NNc1ccc([N+](=O)[O-])cc1[N+](=O)[O-])C12CC3CC(CC(C3)C1)C2	0	-10
Cc1ccnc(SCc2cc(=O)c(OC(=O)Cc3cccc4ccccc34)co2)n1	14	16
Cc1cc(C)n(CCCNS(=O)(=O)c2ccc3c(c2)CCC3)n1	1	-3
FC(F)(F)c1ccc(Cn2cnc(-c3ccccc3)c2C2CC2)cn1	-8	-9
COCCN(Cc1c(-c2cccc(C)c2)noc1N1CCOCC1)C(=O)c1ccccc1	2	4
c1cc2c3c(cccc3c1)-c1nc3c(nc1-2)CCCC3	-3	-2
O=C(NCc1cccc(C(F)(F)F)c1)c1ccc(CSc2nnc(-c3ccccc3Cl)n2-c2cccc(Cl)c2)cc1	16	16
CCc1nc(-c2ccccc2)nc(N2CCN(C(=O)c3ccc(F)cc3)CC2)c1Cc1cccc(Cl)c1	-4	8
O=C(N[C@H]1C[C@H]2CC[C@@H]1C2)C1CC1(c1ccccc1)c1ccccc1 (stereo not given in full)	-4	-14
Cc1ccc(C(=O)Nc2ccc(N3CCCCC3)c(C(=O)NCCc3ccccc3)c2)cc1[N+](=O)[O-]	0	10
O=C(c1ccc(CSc2ncccn2)o1)N1CCCC1Cn1cccn1 (stereo not given)	3	0

Single values from the results shown.
`O=C(NCc1cccc(C(F)(F)F)c1)c1ccc(CSc2nnc(-c3ccccc3Cl)n2-c2cccc(Cl)c2)cc1` – NPYLR7 agonist = 16
`O=C(c1ccc(CSc2ncccn2)o1)N1CCCC1Cn1cccn1` (stereo not given) – NPYLR7 agonist max-min = 0
`COCCN(Cc1c(-c2cccc(C)c2)noc1N1CCOCC1)C(=O)c1ccccc1` – NPYLR7 agonist = 2
`c1cc2c3c(cccc3c1)-c1nc3c(nc1-2)CCCC3` – NPYLR7 agonist = -3
`FC(F)(F)c1ccc(Cn2cnc(-c3ccccc3)c2C2CC2)cn1` – NPYLR7 agonist = -8
`Cc1ccc(C(=O)Nc2ccc(N3CCCCC3)c(C(=O)NCCc3ccccc3)c2)cc1[N+](=O)[O-]` – NPYLR7 agonist max-min = 10
`CCc1nc(-c2ccccc2)nc(N2CCN(C(=O)c3ccc(F)cc3)CC2)c1Cc1cccc(Cl)c1` – NPYLR7 agonist = -4

(continued)
SMILES	NPYLR7 agonist	NPYLR7 agonist max-min
CN1CC2(CCN(C(=O)CCn3cc(Cl)cn3)C2)OC1=O (stereo not given)	8	5
COc1ncccc1Nc1ncc(CN2CCC2c2ccccc2)s1 (stereo not given)	4	7
Cc1c(S(=O)(=O)Nc2ccn(C)n2)cnn1-c1ccccn1	-1	11
O=C(Cn1cnc([N+](=O)[O-])n1)N/N=C\c1cccc(Cl)c1	-8	-12
COc1ccc(-n2c(SCc3ccc(C(=O)Nc4cccc(C)c4)cc3)nnc2-c2cccs2)cc1	13	20
CSc1ncc(CN2CCN(Cc3ccc(C)o3)C(CCO)C2)cn1 (stereo not given)	16	7
Nc1ccc(-c2c(C3CC3)[nH]n(-c3ccccc3)c2=O)cc1	32	30
COc1ccc(Br)c(C(=O)Nc2nc3c(s2)CCC3)c1	-4	-6
Brc1ccc(NCc2nnnn2C2CC2)cc1	-2	-3
CSCCC(=O)Nc1cc(C(C)(C)C)nn1-c1ccc(C#N)cc1	17	24
Cc1cccc(C)c1Oc1ncccc1CNCc1ccccn1	4	-1
CCOc1ccc(-n2c(C)n[nH]c2=O)cc1	9	6
Cc1nnc(SCc2nc(C(C)C)nn2-c2ccc3c(c2)OCO3)s1	-1	-5
O=[N+]([O-])c1ccc(NNC(=S)Nc2ccc(Cl)cc2)c(S(=O)(=O)N2CCOCC2)c1	-6	-10
COc1ccc(CCNC(=O)c2ccccc2N2CCC(NS(=O)(=O)c3ccccc3)CC2)cc1OC	2	12
CC1(C(=O)N2Cc3ccccc3C2)CCN1C(=O)CCc1cccs1 (stereo not given)	3	1
O=C(C1=C(O)C(=O)N(c2cccc(Br)c2)C1c1ccccc1)C1CC1 (stereo not given)	0	2
CCCC(C(=O)Nc1cccc(S(=O)(=O)NC2CC2)c1)c1ccccc1 (stereo not given)	1	0
NCC1CCN(Cc2nc3ccccc3[nH]2)C1 (stereo not given)	5	6
Cc1nn(C)c(=O)c(C(=O)N(C)CC(C)C)c1C	-1	-5
COCCCN(Cc1cccc(C)c1)Cc1ccc(C(O)(c2ccccc2)c2ccccc2)o1	-1	8
CCOC(=O)C(=O)N1CCC(c2nc(-c3cccc(C)c3)no2)CC1	5	-2
CCCCCCn1c(=O)c2c(nc3n2CCN3c2ccc(C)c(C)c2)n(C)c1=O	1	10
Cc1ccc(-n2cc(CN3CCc4[nH]cnc4C3c3ccncc3)cn2)cc1C (stereo not given)	1	-4
Cc1cc(Oc2ccc3c(c2)OCO3)nc(SCc2ccccc2C)n1	24	28
CCC(NC(=O)N1CCC2CCC(C1)N2C(C)C)c1nccs1 (stereo not given)	-1	-1
CN(CC(=O)Nc1ccc(C#N)cc1)Cc1c(F)cccc1Cl	-10	-7
OC(Cc1ccccc1)CN(Cc1ccc(F)cc1)Cc1ccccc1F (stereo not given)	11	14
O=C(CCC1CCN(Cc2cc3ccccc3s2)CC1)NCc1cccnc1	13	5
Cc1onc(-c2c(Cl)cccc2Cl)c1C(=O)Nc1sc2c(c1C(N)=O)CCC(C)C2 (stereo not given)	-5	-6
COC(=O)Cc1csc(Nc2ccc(N3CCOCC3)cc2)n1	0	-3
Cc1ccccc1C(=O)NC(C(=O)N1CCCC1)C1CCN(C(=O)c2ccc(C(F)(F)F)cc2)CC1 (stereo not given)	19	21
CC(NC(=O)CN1CN(c2ccccc2)C2(CCN(C(=O)C(C)(C)CCl)CC2)C1=O)c1ccccc1 (stereo not given)	7	10
O=C(Nc1cccc(C(=O)N2CCC2c2ccccc2)c1)c1ccco1 (stereo not given)	4	-15
CCOC(=O)c1c(C)[nH]c(C(=O)Cn2ncc(Cl)c(Cl)c2=O)c1C	-1	12
COc1ccc(C(=O)N(Cc2ccc(F)cc2)C2CC2)cc1S(=O)(=O)NC(C)C	-5	-4
Cn1c(SCc2cc(C#N)ccc2F)nnc1-c1ccc(F)cc1	1	1
COc1ccc(CCNC(=O)Nc2ccc(N3CCNC(=O)C3)cc2)cc1	6	3
CN(C)C(=O)CCCNC1CCN(c2ccccc2Cl)CC1	5	5
N#C/C=C/N1CCC(CCCC2CCN(/C=C/C#N)CC2)CC1	0	-2
Cc1noc(-c2cccc(F)c2)c1C(=O)NCCC1(C)OCCO1	15	19
CC(=O)c1cc(CN2CCC(CO)(Cc3ccccc3Cl)CC2)cs1	0&9	-2&7
COc1ccc(-c2ccc(=O)n(CCNS(=O)(=O)c3cccnc3)n2)cc1	11	10
Cc1nnsc1C(=O)N1CCC(c2n[nH]c(=O)n2Cc2ccccc2)CC1	7	6
CCO[C@H]1COC[C@@H]1Nc1ncc(C)c(N(C)C)n1	5&12	2&7

Source: PubChem BioAssay (Fisher Drug Discovery Resource Center)
